Screening results deposited in PubChem BioAssay by Center for Chemical Genomics, University of Michigan.
CDC25B-CDK2 inh = primary biochemical HTRF screen for blockers of M-phase inducer phosphatase 2 binding to CDK2/cyclin A; P30305+P24941; HTRF CDC25B-CDK2/CyclinA binding, anti-His/anti-Flag; active compounds read high; z-score (test concentration not listed); actives 0.72% (n = 94,000);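 further: score is relative to mean and SD of negative controls; strong numbers were not always called active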
TAR Tat displ = TAR RNA-Tat peptide displacers, HIV-1, primary screen, biochemical, FRET, FAM/TAMRA-labeled Tat. AID 1259389, 2018. z-score (test concentration not listed). actives 0.6% (n = 100,000). HIV-1 TAR RNA, Tat peptide displacement FRET; active compounds read high;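 further: score is relative to mean and SD of negative controls; some compounds called inactive have numbers as strong as hits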
Active calls of the source: *; . = no result given.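 How the source made its calls: active means z-score from 3 up in half or more of its runs; inactive means the rest.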

mol | CDC25B-CDK2 inh | TAR Tat displ
Cc1ccc(/C=C2/SC(=S)N(CCc3ccc(Cl)cc3)C2=O)o1 | -0.65 | .
CCOCCCNc1cc(N2CCCC(C)C2)c2noc3c2c1C(=O)c1ccccc1-3 (stereo not drawn) | -1.46 | 0.29
CC(=O)N1CCOc2cc(S(=O)(=O)Nc3ccc(Cl)cc3)c(Cl)cc21 | . | 1.7
COc1ccc(NC(=O)CS(=O)(=O)c2ccc3c(c2)S(=O)(=O)N=C(C)N3)cc1OC | . | 1.3
COc1ccc2[nH]c(C)c(CN3CCN(C)CC3)c(=O)c2c1 | 1.09 | 0.75
CCOC(=O)CC(=O)Nc1ccn(C)n1 | -1.46 | .
CCOc1ccc(S(=O)(=O)c2cn(CC)c3ccccc3c2=O)cc1 | 0.44 | 0.3
O=C1CCN=C(Nc2ccc(F)c(Cl)c2)S1 | -0.33 | .
CCOC(=O)c1c(C)oc2ncnc(N3CCc4cc(OC)c(OC)cc4C3C)c12 (stereo not drawn) | . | 0.56
COc1ccc(NC(=O)Cc2c(O)c3ccccc3[nH]c2=O)cc1 | -2.09 | .
CCC(=O)c1cn(CC(=O)N2CCCC2)c2ccccc12 | 0.19 | -1.25
O=C(CCCn1ncn2c(cc3occc32)c1=O)NCCCc1ccccc1 | -1.34 | 0.2
O=C(COc1ccc(Cl)cc1)Nc1ccc(-n2cnnn2)cc1 | -0.46 | 1.27
CC(=O)N1c2ccccc2C(C)=CC1(C)C | -1.27 | 0.25
CCc1nnc(SCC(=O)N(CC)c2ccccc2)c2cc3sc(C)cc3n12 | . | 1.83

Laid out differently: results already given.
Every second line gives: CDC25B-CDK2 inh	TAR Tat displ
> COc1ccc(NC(=O)Cc2c(O)c3ccccc3[nH]c2=O)cc1
  -2.09	.
> CC(=O)N1c2ccccc2C(C)=CC1(C)C
  -1.27	0.25
> COc1ccc(NC(=O)CS(=O)(=O)c2ccc3c(c2)S(=O)(=O)N=C(C)N3)cc1OC
  .	1.3
> O=C(CCCn1ncn2c(cc3occc32)c1=O)NCCCc1ccccc1
  -1.34	0.2

(more compounds)
mol | CDC25B-CDK2 inh | TAR Tat displ
COc1ccc(-c2ccc(NS(=O)(=O)c3ccc(F)cc3)cc2)nn1 | . | 0.48
Cn1nc(-c2ccccc2)[nH]c1=O | -1.95 | .
CC1CC(C)CN(S(=O)(=O)N2CCCC(C(=O)NCCCN3CCCCC3C)C2)C1 (stereo not drawn) | . | 1.16
CCOc1ccc(Nc2nc3ccccc3n3cnnc23)cc1 | 0.07 | -1.66
COc1ccc(-c2nc3c4cnn(-c5cccc(F)c5)c4ncn3n2)cc1OC | -2.83 | 2.36
Nc1nc(NCc2ccco2)nc(NC2CCCCC2)c1[N+](=O)[O-] | . | 0.62
CC(C)NCC(O)c1ccc2ccccc2c1 (stereo not drawn) | . | -1.1
CN1C(=O)Cc2cc(S(=O)(=O)CCC(=O)N3CCCCC3)ccc21 | . | 0.95
CCOC(=O)c1c(NC(=O)CN2CC(C)OC(C)C2)sc(C)c1C (stereo not drawn) | -1.04 | 0.36
COc1ccc(Nc2nc(Nc3ccccc3)c3cnn(C)c3n2)cc1Cl | . | 1.29
O=C(N/N=C/c1ccc(Cl)cc1Cl)/C(=C/c1cccs1)NC(=O)c1ccccc1 | -0.54 | .
COCc1nc2ccccc2n1CCOc1ccc2ccccc2c1 | -0.92 | -0.55
CCn1cc(C(=O)O)c(=O)c2cc3c(cc21)OCO3 | 0.29 | 0.5
COc1ccc(N2CCN(Cc3nc(-c4ccc(OC)c(OC)c4)no3)CC2)cc1 | -0.94 | 1.77
CCn1cc(C(=O)O)c(=O)c2cnc(N3CCCC3)nc21 | . | 0.27

Profiles, quoted from the list. Order of values: CDC25B-CDK2 inh	TAR Tat displ
Nc1nc(NCc2ccco2)nc(NC2CCCCC2)c1[N+](=O)[O-] reads .	0.62
COc1ccc(N2CCN(Cc3nc(-c4ccc(OC)c(OC)c4)no3)CC2)cc1 reads -0.94	1.77
Cn1nc(-c2ccccc2)[nH]c1=O reads -1.95	.
CCn1cc(C(=O)O)c(=O)c2cnc(N3CCCC3)nc21 reads .	0.27
CCOC(=O)c1c(NC(=O)CN2CC(C)OC(C)C2)sc(C)c1C (stereo not drawn) reads -1.04	0.36

(continued)
mol | CDC25B-CDK2 inh | TAR Tat displ
CC(O)CNc1c[nH]c(=O)[nH]c1=O (stereo not drawn) | -0.14 | -1.15
Cc1cc(C(=O)N2CCCC2c2cc(C(C)C)on2)on1 (stereo not drawn) | . | 0.57
O=C1CC(/C=C/c2ccccc2)Cc2nc(N3CCN(c4ccccc4)CC3)ncc21 (stereo not drawn) | -2.91 | 0.55
CN1C(C(=O)Nc2sc3c(c2C(N)=O)CCCC3)=CC(c2cccs2)=NS1(=O)=O | -1.1 | -2.55
c1ccc(-c2nc(C34CC5CC(CC(C5)C3)C4)co2)cc1 | -1.82 | .
Cn1c(=O)c(=O)n(C)c2cc(S(=O)(=O)CCC(=O)NC3CCCC3)ccc21 | -1 | -0.4
COc1ccc(C2C3=C(CC(C)(C)CC3=O)Nc3n[nH]c(-c4ccc(Cl)cc4)c32)cc1OC (stereo not drawn) | . | 1.11
Nc1ccc(Oc2cccc(-c3ccc(N)cc3)c2)cc1 | . | 2.1
O=C(NC1CCCC1)C1=Cc2cc(Br)ccc2OC1 | . | 0.66
Cn1c(C(=O)N2CCCC(C(=O)NCc3cccs3)C2)cc2sccc21 (stereo not drawn) | -0.22 | .
CCC(C(=O)NC1CC1)n1nc(C)c2c(C)n(-c3ccccc3)nc2c1=O (stereo not drawn) | . | 1.15
COc1ccc(-c2noc(C3CCCN(S(=O)(=O)c4ccc(Br)cc4)C3)n2)cc1 (stereo not drawn) | . | 0.58
CN(C)S(=O)(=O)c1ccc2c(c1)c(=O)c(C(=O)N1CCN(c3cccc(Cl)c3)CC1)cn2C | 0.81 | 0.49
COC(=O)c1ccc(COc2ccc3c(=O)c(-c4ccc(Cl)cc4)coc3c2)cc1 | -0.78 | 0.46
N=C1C(c2nc3ccccc3[nH]2)=C(O)CN1C1CCCCC1 | -0.91 | 0.46
CCCOc1cccc(C2c3c(oc4ccccc4c3=O)C(=O)N2c2nc(C)c(C)s2)c1 (stereo not drawn) | -3.14 | 0.54
CCOC(=O)C1CCc2sc(N)c(C#N)c21 (stereo not drawn) | -1.6 | .
Cc1csc2nc(COc3ccc(NC(=O)C(C)C)cc3)cc(=O)n12 | -2.05 | -0.48
COc1cccc(Nc2nc(Cl)nc(Nc3cccc(OC)c3)n2)c1 | -1.17 | -0.05
CCN1CCN(C(=O)C2=CC(c3cccs3)=NS(=O)(=O)N2C)CC1 | -1.78 | 1.17
Cc1nc(-c2csc(S(=O)(=O)Nc3ccc(Cl)cc3C)c2)no1 | . | 0.66
CC(C)Cc1nc2ccccc2n1Cc1ccccc1F | -0.98 | 1.18
Cc1c(C(=O)NC2CCCc3ccccc32)oc2ccc(S(=O)(=O)N3CCOCC3)cc12 (stereo not drawn) | -0.49 | .
COCCNC(=O)CN1C(=O)CSc2ccc(S(=O)(=O)N3CCOCC3)cc21 | . | 1
C=CCNC(=O)c1sc(=S)n(-c2ccc(C)c(C)c2)c1N | . | 1.66
N#CC(N=Nc1ccc2c(c1)COCO2)S(=O)(=O)c1ccccc1 (stereo not drawn) | -2.84 | .
CC(C)c1ccc(C2C3=C(CCCC3=O)NC3=C2C(=O)c2ccccc23)cc1 (stereo not drawn) | -4.43 | -0.8
CCN1C(=O)c2cc(C(=O)NCCC(C)C)nn2CC1(C)C(=O)NC1CCCC1 (stereo not drawn) | . | 1.66
O=C(CCCCCN1C(=O)c2ccccc2C1=O)Nc1nccs1 | -0.14 | .
CSC1=NCCN1C(=O)c1cc2ccccc2o1 | -0.8 | .
O=C(Cn1nc(Cc2cccnc2)c2ccccc2c1=O)NCC1COc2ccccc2O1 (stereo not drawn) | -0.72 | 1.2
O=c1oc2c(c(O)c1Cc1ccccc1)c(=O)[nH]c1ccccc12 | -1.41 | .
O=C1c2ccncc2C(=O)N1C1CC1 | . | 1.39
COc1cccc(CS(=O)(=O)c2ccc3c(c2)S(=O)(=O)N=CN3)c1 | . | -0.93
CN(CC(=O)NCc1ccc2c(c1)OCO2)c1nnc(N2CCCC2=O)s1 | -2.16 | 2.35
CC(=O)N1CCC2(CC1)OC(=O)C(C)=C2C(=O)NCCCN1CCN(C2CCCCC2)CC1 | . | 1.29
CCOC(=O)CSc1ccc(Cl)nn1 | -1.01 | 0.44
O=C(O)CSCC(=O)N1CCOCC1 | -0.18 | 0.62
CCCCN[C@H]1CS(=O)(=O)C[C@@H]1S(=O)(=O)c1ccc(F)cc1 | 0.67 | 0
Cc1ccc2nc(C)c(Cc3nnc(SCC(=O)Nc4ccccc4Cl)n3C)c(=O)n2c1 | -1.69 | 1.04
O=C1C(=O)N(Cc2cccnc2)C(c2ccc(F)cc2)/C1=C(\O)c1ccccc1 (stereo not drawn) | -3.59 | 3.28
Cc1cc(C)n(-c2cc(Nc3ccc(C)c(F)c3)ncn2)n1 | . | -8.61
CCN1CCC[C@H]1CNC(=O)c1cc(S(N)(=O)=O)ccc1OC | -0.77 | 0.58
CCCCNC(=O)C1=CC(c2cccs2)=NS(=O)(=O)N1C | -1.93 | 2.35
CC(C)N(C)C1CCN(C(=O)Nc2ccccc2)CC1 | . | 0.44
Cc1nc(S(=O)(=O)NCc2ccc(F)cc2)cn1C | . | 1.04
CCCc1nn2c(=O)cc(COC(=O)COc3ccc(C)c(C)c3)nc2s1 | . | 0.28
Cc1ccc(C)c(Cn2nc(Cl)c3ccccc3c2=O)c1 | -0.07 | 0.77
CC(C)OC(=O)c1ccc2[nH]c3c(c2c1)CCCC3 | 18.3* | -1.48
O=C(CSc1nc2ccc(N3C(=O)c4ccccc4C3=O)cc2s1)NC1CC1 | -3.3 | .
CNC(=O)c1c(NC(=O)c2cc(=O)c3cc(C)ccc3o2)sc2c1CCCC2 | 0.09 | 0.08
COc1cc(N2C(=O)c3ccccc3C2=O)nc(OC)n1 | -1.36 | .
CCCCC(=O)OCc1cc(=O)n2nc(CC)sc2n1 | . | 0.6
Cc1ccc2nc3c(cc2c1)CCN3C(=O)c1ccccc1C | -2.14 | 0.43
CC1CCCN(c2nc3nonc3nc2N2CCCC(C)C2)C1 (stereo not drawn) | -0.5 | 1.25
OCCNc1ncnc2onc(-c3ccc(F)cc3)c12 | . | -0.56
CCC(OC(=O)CN1C(=O)C(=O)c2ccccc21)C(=O)Nc1sc2c(c1C#N)CCCC2 (stereo not drawn) | -0.72 | 0.26
CCN(CC)CCNC(=O)c1ccc2c(Cl)c3c(nc2c1)CCC3 | -0.86 | 1.87
CN(c1ccnc(C(=O)NC2CCCCC2)c1)S(=O)(=O)c1ccc(F)cc1 | . | 0.1
COc1ccc(C(C)=O)cc1N1C(=O)C2C3c4ccccc4C(C(C)=O)(c4ccccc43)C2C1=O (stereo not drawn) | -1.64 | .

The list continues.
mol | CDC25B-CDK2 inh | TAR Tat displ
O=C(CSc1nncn2c1cc1occc12)Nc1ccccc1F | . | -2.03
Cn1c(=O)oc2cc(S(=O)(=O)N3CCCC(C(=O)N4CCN(c5ncccn5)CC4)C3)ccc21 (stereo not drawn) | -0.53 | .
CC(=O)N1c2ccc(S(=O)(=O)NCC3CCC(C(=O)Nc4nccs4)CC3)cc2CC1C (stereo not drawn) | . | -0.81
O=C(O)c1sccc1S(=O)(=O)Nc1ccccc1N1CCOCC1 | 18.6* | .
O=C(NC1CC1)C1=CCN(S(=O)(=O)c2ccc(Br)cc2)CC1 | -1.27 | -0.88
CCCSc1ccc([N+](=O)[O-])c(NC(=NCCS(=O)(=O)O)NC(=O)OC)c1 | -2.11 | .
O=C(/C=C/c1ccccc1)NNC(=O)c1sccc1-n1cccc1 | -1.55 | .
Cc1ccc(S(C)(=O)=NC(=O)CSc2ccc(Cl)cc2)cc1 (stereo not drawn) | -0.68 | .
COC(=O)CSC1=C(C#N)C(=O)NC(c2ccc(OC)cc2)S1 (stereo not drawn) | -2.32 | 0.7
FC(F)(F)c1ccnc(NCCNC(=S)NCc2ccco2)n1 | -1.59 | .
COc1cc2c(cc1OC)C1=C(c3ccccc3Br)C(=O)C(=O)N1C(C)(C)C2 | -4.22 | 1.48
C=CCNC(=O)c1c(NC(=O)C2COc3ccccc3O2)sc2c1CCCC2 (stereo not drawn) | -3.75 | .
Cc1cccc(C)c1Nc1nn2c(=O)c3ccccc3nc2s1 | . | 2.86
O=C1OC2(O)C3C4C=CC(C4)C3C(=O)N2c2c(Br)cc(Br)cc21 (stereo not drawn) | -1.27 | .
CCCn1cc(S(=O)(=O)c2ccc(OC)cc2)c(=O)c2cc(OCC)ccc21 | 0.09 | 0.03
Cc1cc(C)c(S(=O)(=O)NCCc2sc(-c3cccnc3)nc2C)cc1C | . | 1.15
Clc1ccc(-c2noc(C3CCCCC3)n2)cc1 | -0.77 | -0.71
CCn1c(C2CC(=O)N(c3ccc(Cl)cc3)C2)nc2ccccc21 (stereo not drawn) | 0.16 | 1.93
O=C(O)CCSc1ccc(Cl)cc1 | . | 2.99
CC(C)C(=O)Nc1nnc2n1CCCS2 | . | 1.64
O=C(NCCSCc1c(F)cccc1Cl)Nc1cccc(C(F)(F)F)c1 | 0.28 | .
CCCN1CCN(CCNS(=O)(=O)c2ccc3c(c2)CCCC(=O)N3)CC1 | . | -0.34
CC(C)CCn1c(SCC(=O)NC2CCCCC2)nc2ccsc2c1=O | -3.13 | .
CCOc1cc(C2C(C(=O)OC)=C(C)NC3=C2C(=O)c2ccccc23)cc(Br)c1OC (stereo not drawn) | -0.48 | 2.46
